Compound activity: PubChem, several laboratories
Ecoli rRNA inh: selective bacterial rRNA inhibition in E. coli | 350,000 tested, 1.6% active | GFP signal change (wild-type ribosome), % (test concentration not listed) | E. coli WT GFP vs humanized-ribosome RFP mutants, fluorescence, 24 h; stronger effect = lower value; DMSO median 0, no signal -100;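 active means significant combined selectivity score with lowered wild-type GFP, culture density cut under 30%, mutant RFP and density less affected; inactive means any of these conditions unmet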; further: one replicate is shown; some compounds called inactive have numbers as strong as hits
ALR inh: blocks human ALR sulfhydryl oxidase activity; purified ALR, DTT oxidation, H2O2 HRP-luminol luminescence; P55789; inhibition, % (test concentration not listed); 290,000 tested, 3.8% active;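 active means mean and each replicate at 75% or more; inconclusive means only one of the two met; inactive means neither met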;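 further: stock transfer was 7.5 nL into about 7.5 µL; 0% = neutral wells and 100% = wells with inactivated enzyme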
Target sequence (P55789 whole entry, looked up): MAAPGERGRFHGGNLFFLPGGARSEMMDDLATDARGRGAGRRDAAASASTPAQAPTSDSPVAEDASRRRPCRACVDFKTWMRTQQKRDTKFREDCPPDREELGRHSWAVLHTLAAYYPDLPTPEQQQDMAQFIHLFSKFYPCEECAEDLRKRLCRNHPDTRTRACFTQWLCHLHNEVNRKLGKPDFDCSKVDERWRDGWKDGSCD
Ecoli growth: inhibitors of Escherichia coli growth; OD600, 23 h; stronger effect = lower value; AID 1053175; OD600 absorbance (concentration not given with the values); 330,000 tested, 0.21% active;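 active means OD600 absorbance below the run mean of sample wells minus 3.6 SD, in any replicate, cut at about 0.56 in these data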;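 further: stock transfer was 300 nL into about 60 µL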
Vif TR-FRET: HIV-1 Vif–A3G interaction blockers – biochemical, TR-FRET, GST-Vif 1-94, biotin-A3G peptide, dose response retest, primary screen (AID 1117319); TR-FRET GST-Vif / biotin-A3G peptide binding; higher % means a stronger effect; test concentration not given here; strong numbers were not always called active; 260,000 tested, 0.57% active; inhibition, %, or IC50 in µM where a hit was titrated;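 active means above the screen mean plus three standard deviations and confirmed in dose response; inconclusive means results disagree or hit not tested in dose response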;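 further: Vif residues 1-94 fused to GST binding biotinylated APOBEC3G peptide 110-148; 0% = full assay without inhibitor and 100% = GST in place of GST-Vif; retest series ran down from 100 µM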
HNF4A DNA FP: change in binding of human HNF4 alpha to DNA; HNF4a-FITC DNA binding, fluorescence polarization, 1 h; activity change, % at 10 µM; 360,000 tested, 0.3% active; AID 1224865; in the data active means activity change above about 30%, passing the limit was not always enough;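 further: controls were the assay level and a saturating level of protein; the project sought stronger binding though the title names inhibitors; some compounds called inactive have numbers as strong as hits; positive values seem to mean higher polarization but the record does not say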
Target sequence (P41235 whole entry, looked up): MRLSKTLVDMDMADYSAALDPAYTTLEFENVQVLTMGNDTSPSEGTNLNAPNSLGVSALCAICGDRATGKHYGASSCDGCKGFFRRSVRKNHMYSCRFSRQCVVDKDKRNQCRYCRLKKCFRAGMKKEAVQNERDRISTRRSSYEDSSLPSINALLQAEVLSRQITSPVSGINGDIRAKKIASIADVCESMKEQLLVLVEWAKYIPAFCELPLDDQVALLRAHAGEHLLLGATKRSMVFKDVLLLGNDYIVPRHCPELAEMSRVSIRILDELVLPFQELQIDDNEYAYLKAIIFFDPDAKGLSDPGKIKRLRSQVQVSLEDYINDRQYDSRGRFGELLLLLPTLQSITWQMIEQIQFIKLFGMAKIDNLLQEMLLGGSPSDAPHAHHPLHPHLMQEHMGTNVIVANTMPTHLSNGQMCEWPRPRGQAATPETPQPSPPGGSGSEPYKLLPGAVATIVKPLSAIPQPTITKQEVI
MLL AF4-AF9 inh: inhibitors of human MLL-AF4/AF9 interaction; AlphaScreen, biotin-AF4 peptide binding to FLAG-AF9; inhibition, % at 10 µM; 350,000 tested, 0.47% active; AID 651704;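 active means every replicate reaching a set inhibition limit, whatever the replicate mean, cut at about 25% in these data; inconclusive means mean inhibition reaches that limit but some replicates miss it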;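 further: 0% = plate neutral control median and 100% = total signal loss; the record names both 10 and 1 µM as test concentration; the first replicate is given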
FGF22 binding: shifts melting point of recombinant human FGF22; calls only at 9.99 µM; Q9HCT0; 340,000 tested, 1.5% active; recombinant FGF22 thermal shift, SYPRO orange fluorescence; percent of sucrose octasulfate shift, DMSO zero;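 active means melting point raised past a set limit in the mean and every replicate; inconclusive means no clear call; three in four hits are not shown here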
Target sequence (Q9HCT0 whole entry, looked up): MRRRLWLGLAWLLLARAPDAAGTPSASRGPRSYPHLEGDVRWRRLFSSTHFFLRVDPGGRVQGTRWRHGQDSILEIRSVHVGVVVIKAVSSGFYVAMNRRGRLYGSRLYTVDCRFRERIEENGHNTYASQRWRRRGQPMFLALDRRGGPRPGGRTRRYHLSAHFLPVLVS
Ecoli rRNA inh OD600: recorded beside Ecoli rRNA inh, whose call it bears; OD600 change, %; measured here: OD600 growth;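 optical density of the mix in the first replicate; 0 = DMSO median and -100 = no signal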
Ecoli rRNA inh RFP: second read-out of Ecoli rRNA inh, no call of its own (marks repeat the call); RFP signal change, %; measured here: RFP humanized mutant strains;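 first replicate; 0 = DMSO median and -100 = no signal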
Active calls of the source: *; i = inactive; ? = inconclusive; / = not tested or not shown; + = active, no number.

Ecoli rRNA inh,Ecoli rRNA inh OD600,Ecoli rRNA inh RFP,structure,ALR inh,Ecoli growth,Vif TR-FRET,HNF4A DNA FP,MLL AF4-AF9 inh,FGF22 binding
3,5,0.9,C[C@H]1CN([C@@H](C)CO)C(=O)c2cccc(NS(=O)(=O)c3ccccc3)c2O[C@H]1CN(C)CC1CCCCC1,/,/,/,/,0.0,i
26,7,1.0,CN(C)C/C=C/C(O)(c1ccccc1)c1ccccc1,-9,0.7,29%,-2.3,-3.0,i
4,18,-2.4,C[C@@H]1CN([C@@H](C)CO)C(=O)c2cc(-c3ccc(C(=O)N(C)C)cc3)cnc2O[C@@H]1CN(C)C,/,/,/,/,-1.6,i
0,6,-0.5,COC(=O)c1cc2n(n1)CCN(Cc1cccc(OC)c1)C2=O,4,0.7,-6%,-1.0,-3.7,i
/,/,/,CC(C)C(=O)NC(Nc1ccc(S(N)(=O)=O)cc1)C(Cl)(Cl)Cl (configuration not stated),-2,0.68,/,-1.5,/,/
3,7,-0.3,O=C(CNC(=O)C12CC3CC(CC(C3)C1)C2)Nc1ncccc1O,-14,0.7,-2%,1.6,1.5,i
/,/,/,CSc1nsc(SCC(=O)Nc2ccc(C(C)=O)cc2)n1,?,0.69,?,-2.8,/,/
/,/,/,C=C(C)c1nc(N)nc(N)n1,-3,0.76,-3%,1.2,/,/
5,7,-7.6,Nc1nc(Br)c2c(F)cccc2c1-c1ccc(Cl)cc1,21,0.73,-1%,-1.7,3.7,i
11,3,-2.1,CCN(CC)C(=O)CCSc1nnc(-c2ccco2)o1,2,0.71,13%,-5.3,-1.0,i
-57,-76,-14,OC[C@H]1[C@H](c2ccc(C#CC3CCCC3)cc2)[C@H]2CN(CCC(F)(F)F)CCCCN21,/,/,/,/,11,i
11,13,2.6,Cc1cc(N(C)/N=C/c2ccccc2O)nc(-c2ccccc2O)n1,-1,/,/,3.7,-1.1,/
/,/,/,COc1ccccc1NC(=O)CN1CCN(CC(=O)Nc2ccc3c(c2)OCCO3)CC1,-14,0.78,0%,-1.3,/,/
4,12,-2.4,O=C(c1ccncc1)N1C[C@H]2[C@@H](c3ccccc31)[C@@H](CO)N2C(=O)c1ccccn1,/,/,/,/,-2.1,i
/,/,/,COc1cc(S(=O)(=O)N2CCN(c3ccccc3F)CC2)ccc1Cl,-15,0.69,0%,-1.7,/,/
-18*,9.4*,-1.0*,COc1ccccc1-n1cnc2cc(NCc3ccccc3O)ccc21,98*,0.7,6%,10,11,i
/,/,/,COc1ccc(S(=O)(=O)CCC(=O)O)cc1,-9,0.7,2%,1.0,/,/
/,/,/,COc1ccc(N(CC(=O)NC2CCCCC2)C(=O)CNC(=O)c2ccco2)cc1OC,/,0.69,2%,2.0,/,/
/,/,/,COc1ccccc1NC(=S)Nc1ccccn1,82*,0.66,15%,-2.0,/,/
0,4,-1.7,CC(C)C(=O)Nc1ccc2c(c1)C(=O)N(C)[C@@H]1CC[C@@H](CC(=O)Nc3ccccc3)O[C@@H]1CO2,/,/,/,/,-1.9,i
/,/,/,COc1ccccc1N(CN1CCCC1=O)C(=O)c1c(F)cccc1F,-4,0.69,-7%,-3.3,/,/
/,/,/,C=CCNc1ncnc2c1[nH]c1ccccc12,74,0.5*,6%,0.0,/,/
-3,-2,-0.2,O=C(Cn1cnc2c(nnn2Cc2ccccc2)c1=O)N1CCN(c2ccccc2)CC1,15,0.75,2%,-2.3,-6.8,i
/,/,/,CC(=O)N1C(=O)N(C)C2C1N(C(C)=O)C(=O)N2C (configuration not stated),-7,0.7,19%,1.7,/,/
/,/,/,CC(=O)Nc1ccc(S(=O)(=O)N(CCO)Cc2ccccc2)cc1,-7,0.7,25%,-11,/,/
3,5,2.3,COCC1CCCCN1C(=O)CCCn1nnnc1CN1CCC(C)CC1 (configuration not stated),-5,0.7,-5%,-2.7,-5.2,i
-14,-16,-1.3,COc1ccc(-c2csc(N3CCSCC3)n2)cc1,43,0.68,-1%,-6.4,8.9,i
-7,3,-5.0,O=C(CCC(=O)NNc1nc2ccccc2c2nc(-c3ccccc3)nn12)NCCCN1CCOCC1,38,0.71,70%,0.5,-1.4,i
8,10,-0.7,CC(C)=CC(=O)Nc1c(C)cc(C)cc1Cl,33,0.73,/,2.5,-4.1,i
2,8,0.8,O=C(C[C@@H]1CC[C@@H](NC(=O)CN2CCOCC2)[C@H](CO)O1)NC1CCC1,/,/,/,/,-1.1,i
5,6,2.3,COc1ccccc1/C=N/NC(=O)C(=O)NCc1cccnc1,-5,/,/,-3.6,-0.9,i
21,8,-0.7,COc1ccccc1NC(=O)CN1C(=O)C(C)SC(C)C1=O (configuration not stated),-3,0.71,/,-0.4,-2.6,i

Continued (4 carried over from the part before).
Ecoli rRNA inh,Ecoli rRNA inh OD600,Ecoli rRNA inh RFP,structure,ALR inh,Ecoli growth,Vif TR-FRET,HNF4A DNA FP,MLL AF4-AF9 inh,FGF22 binding
8,10,-0.7,CC(C)=CC(=O)Nc1c(C)cc(C)cc1Cl,33,0.73,/,2.5,-4.1,i
2,8,0.8,O=C(C[C@@H]1CC[C@@H](NC(=O)CN2CCOCC2)[C@H](CO)O1)NC1CCC1,/,/,/,/,-1.1,i
5,6,2.3,COc1ccccc1/C=N/NC(=O)C(=O)NCc1cccnc1,-5,/,/,-3.6,-0.9,i
21,8,-0.7,COc1ccccc1NC(=O)CN1C(=O)C(C)SC(C)C1=O (configuration not stated),-3,0.71,/,-0.4,-2.6,i
0,4,0.3,Cn1c(-c2ccccc2)cc2ccccc21,/,0.68,3%,-4.1,-2.7,i
/,/,/,O=C(c1ccco1)N1CCN(C(=O)c2cc(-c3ccccc3)nc3ccccc23)CC1,-5,0.69,-4%,-0.4,/,/
/,/,/,COc1cc(C)c(/C=C(\C#N)C(=O)Nc2ccc(C)cc2)cc1C(C)C,/,0.69,-3%,-0.2,/,/
/,/,/,O=C(CSc1nnnn1-c1cccc2c1CCCC2)N1CCCCC1,-15,0.73,/,3.2,/,/
1,3,1.4,C[C@H](CO)N1C[C@H](C)[C@H](CN(C)Cc2cccc(C(F)(F)F)c2)Oc2ncc(-c3cccc(C(F)(F)F)c3)cc2C1=O,/,/,/,/,2.4,i
/,/,/,Cc1cc(C)c(S(=O)(=O)N(C)CC(=O)N2CCCCC2)c(C)c1,0,0.7,?,-0.5,/,/
/,/,/,COc1ccc(C(=O)/C=C/c2ccc(O)cc2)cc1,98*,0.67,-2%,4.7,-2.2,+
3,8,1.3,CCOC(=O)c1c(C)[nH]c(-c2csc(N)n2)c1C,/,0.64,9%,15,15,i
11,9,3.9,CC(C)(O)C#Cc1ccc(C(=O)N2CCCC(CNS(=O)(=O)c3cccs3)C2)o1 (configuration not stated),9,0.64,2%,0.7,-7.2,i
-4,-7,0.6,COc1ccc(CC(=O)NC2CCSc3ccccc32)c(OC)c1 (configuration not stated),-25,0.66,2%,2.0,4.6,i
11,-2,0.1,CCOc1ccccc1CN1CCN(C2CCOCC2)CC1CCO (configuration not stated),-1,0.71,/,-1.8,-3.4,i
-4,-9,-2.9,Cc1cccc(NC(=O)c2ccc(F)c(S(=O)(=O)N3CCC4(CC3)OCCO4)c2)c1,-6,0.68,-9%,2.3,1.7,i
/,/,/,Cc1nc(Nc2ccc(S(=O)(=O)N3CCCC3)cc2)c2nnn(Cc3ccccc3)c2n1,-2,0.72,/,4.7,/,/
8,-10,1.4,Cc1ccc(C)c(CC(=O)N2CCCC(c3cc(C(=O)NCc4ccccc4)no3)C2)c1 (configuration not stated),/,/,/,2.6,-1.6,i
/,/,/,Cc1nnc(NCCN2CCOCC2)[nH]c1=O,1,0.78,27%,1.6,/,/
1,-13,19,CCN(CC)CCn1c(SCC(=O)Nc2ccc3c(c2)CCC3)nc2ccccc2c1=O,/,0.66,5%,-1.6,5.4,i
17,13,7.0,C(=N\N1CCOCC1)/c1nc(-c2ccccc2)n2ccccc12,96*,/,10%,4.8,8.9,i
6,7,6.4,Cn1c(=O)c2c(nc(CN3CCc4ccccc4C3)n2CCCO)n(C)c1=O,-20,0.76,2%,4.9,-2.3,i
2,-9,4.3,Cc1ccc(S(=O)(=O)Nc2ccc3c(c2)C(=O)N([C@@H](C)CO)C[C@H](C)[C@H](CN(C)Cc2ccc4c(c2)OCO4)OCCCC[C@H](C)O3)cc1,/,/,/,/,7.0,i
2,-5,-8.4,CN(C)c1ccc(C(C#N)c2ccc(Cl)cc2)nn1 (configuration not stated),-2,0.68,5%,-1.1,-14,i
11,19,-1.9,O=C(CSc1ccc2nnc(-c3cccnc3)n2n1)NCC1CCCO1 (configuration not stated),/,0.76,70%,-1.9,2.5,i
11,5,-6.0,Nc1nc2n(n1)C(=O)CC(c1ccccc1[N+](=O)[O-])N2 (configuration not stated),1,0.65,6%,1.3,-2.0,i
-17*,-11*,6.2*,Cc1cccc(OCCNc2ncccc2[N+](=O)[O-])c1,/,/,-4%,0.1,16,i
/,/,/,COc1ccccc1NC(=O)Cn1nc(-c2ccc(Cl)cc2)c2ccccc2c1=O,-1,0.76,-3%,-3.0,/,/
/,/,/,Cc1cc(C)nc(N2CCCC(C(=O)NC(C)CCc3ccco3)C2)n1 (configuration not stated),8,0.69,2%,3.8,/,/
6,6,-0.2,CCOC(=O)C(=NC(C)CC)NNc1ccc(Br)cc1 (configuration not stated),99*,0.68,/,-3.1,-2.5,i
3,8,-0.5,COc1cc(C(=O)Oc2ccccc2OC(=O)c2cc(OC)c(OC)c(OC)c2)cc(OC)c1OC,/,0.69,-25%,-4.5,-7.2,i
17,14,0.9,COC(C[C@@H]1O[C@@H]1C(=O)COCc1ccccc1)OC,/,/,/,2.1,/,i
1,-14,-0.7,CC(=O)N1c2c(cc(Br)cc2S(=O)(=O)NCc2ccccc2)CC1C (configuration not stated),4,0.72,2%,-0.1,-0.1,i
4,3,-1.3,CC(C)(C)NC(=O)C(Cc1ccccc1)N1C(=O)c2ccccc2C1=O (configuration not stated),-17,0.69,/,1.3,-2.7,i
-15,-3,2.4,O=C(/C=C/c1ccccc1)C1=C(O)C(=O)N(CCO)C1c1ccc2c(c1)OCO2 (configuration not stated),8,0.64,6%,-3.2,-1.6,i
0,0,-0.2,COc1cccc(C(=O)Nc2ccc3c(c2)C(=O)N(C)[C@@H]2CC[C@@H](CC(=O)NCC(F)(F)F)O[C@H]2CO3)c1,/,/,/,/,-1.9,i
-8,-2,3.2,CC1C(=O)N(Cc2cn(Cc3ccco3)nn2)CCS(=O)(=O)N1Cc1ccc(-c2cccc(N(C)C)c2)cc1 (configuration not stated),/,/,/,-6.3,7.4,i
8,0,0.2,O=C(O)C1=C[C@@H](c2ccc(F)cc2)C[C@@H](OCCCCO)O1,/,/,-2%,2.3,-2.2,i
/,/,/,CCn1c(C)cc(/C=C2\NC(=O)N(Cc3ccccc3)C2=O)c1C,-5,0.72,-5%,1.2,/,/
9,11,15,COc1ccc(-c2ccc3c(c2)S(=O)(=O)c2cccc(C(=O)NC4CCCC4)c2C3=O)cc1OC,8,0.71,/,51*,0.6,i
-20,1,15,O=[N+]([O-])c1ccc(NN=Cc2cccc(O)c2)nc1,/,0.59,2%,2.6,-1.6,i
1,8,-2.6,Cc1ccccc1NC(=O)CSc1nc2scc(C)c2c(=O)[nH]1,-2,0.68,/,1.1,-2.1,i

Some of the compounds tested. The share of hits here may be higher or lower than overall.
